Mtb H37Rv – Confirmatory growth inhibition assay against Mycobacterium tuberculosis H37Rv, potency (AID 1949); one-dose inhibition, % at 10 µg/mL; IC50 in µg/mL for titrated hits; 100,000 compounds, 1.6% hits; most inactive calls were filed without a number and no value below 0 was filed;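 active = confirmed in a dose series; inconclusive = about 50% or more but not retested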;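 also: bacteria grown 7 days with compound before Alamar blue readout; 0% = untreated bacteria and 100% = reference antibiotic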
Numbers without * were called inactive; i = inactive; ? = inconclusive. This is a subset, so the mix of outcomes need not match the whole.

Structure	Mtb H37Rv
CCCN(CCC)C(=O)c1cc2c(n(-c3ccc(C)cc3)c1=O)CCCC2=O	i
COC(=O)c1ccccc1NC(=O)C1CCN(S(=O)(=O)c2cc(Cl)ccc2Cl)CC1	i
N#CCC(=O)Nc1ncn(Cc2ccccc2Cl)n1	i
NC(=O)CC(CC(=O)OCc1ccccc1)c1ccccc1 (stereo not drawn)	i
Cc1nc2ccccc2nc1OCC(=O)c1ccc(Cl)cc1	i
CC[n+]1c(/C=C/c2ccc(-c3ccc([N+](=O)[O-])cc3)o2)ccc2ccccc21	12%
COc1ccc(C2CC(=O)C(C=Nc3cc(Cl)ccc3Cl)=C(O)C2)cc1 (stereo not drawn)	i
O=S(=O)(NCc1ccccc1Cl)c1ccc(F)cc1	i
CCCC(=O)c1cc(F)c(N2CCN(C(=O)c3ccccc3)CC2)cc1C	6%
O=c1c2ccccc2[nH]c(=S)n1CCCN1CCOCC1	i
CCC(C)c1ccc(OCC(=O)Nc2ccc(OC)cc2[N+](=O)[O-])cc1 (stereo not drawn)	i
CCOC(=O)C(=O)Nc1cc(C(F)(F)F)ccc1Cl	i
CC(C)NC(=O)C12CCC(C)(C(=O)C1=O)C2(C)C (stereo not drawn)	i
CCOC(=O)c1cc(NC(=O)N2CCCCC2)c(C)nc1C	2%
O=C(c1cc(-c2ccc(Cl)cc2)nc2ccccc12)N1CCCCC1	28%
COC(=O)C1=NN(C(=O)c2cccc(OC)c2)C(C)(O)C1 (stereo not drawn)	i
N#Cc1c(-c2ccccc2)nc(SCC(=O)Nc2ccc(Cl)cn2)[nH]c1=O	i
N#Cc1ccc(-c2ccc(OC(=O)CSc3ccccc3[N+](=O)[O-])cc2)cc1	i
CN(C)c1ccc(CNCC2CCCO2)cc1 (stereo not drawn)	i
Cc1nn(C(=O)COc2ccccc2Br)c(C)c1Sc1ccccc1	i
COc1cccc(C(=O)NC(c2ccco2)c2c(O)ccc3ccccc23)c1 (stereo not drawn)	i
CCC(=O)Nc1ccc(Cl)c(NC(=O)c2cccc(C)c2)c1	i
Cc1ccc(NC(=O)CCC(=O)c2cccs2)cc1	i
C=CCn1c2ccccc2c2nnc(SCC(=O)Nc3nc4ccccc4s3)nc21	6%
N#Cc1c(C(F)(F)F)cc(-c2ccco2)nc1SCC(=O)Nc1cccc(C(F)(F)F)c1	i
Cn1c(Cc2ccccc2)nnc1SCc1ccc(I)cc1	i
OCc1nc2ccccc2n1CC(O)COc1ccc(OCc2ccccc2)cc1 (stereo not drawn)	4.8µg/mL*
CCOc1ccccc1N(CC(=O)Nc1ccccc1Sc1ccccc1)S(C)(=O)=O	8%
CC1CCN(S(=O)(=O)c2ccc(NC(=O)Cc3ccc(Br)cc3)cc2)CC1	i
NC(=S)Nc1ccc(NC(=S)NC(=O)c2ccco2)cc1	22%
COc1cccc(C(=O)NC(=S)Nc2ccccc2N2CCCC2)c1	?
COc1ccc(OC)c(C(C)NC(=S)Nc2ccc(Br)cc2Cl)c1 (stereo not drawn)	1%
COC(=O)C1C2C=CC3(CN(Cc4ccco4)C(=O)C13)O2 (stereo not drawn)	i
O=C(Oc1ccc(F)cc1F)c1ccc(F)cc1	i
COc1ccc(C(=O)NC(=S)Nc2ccccc2N2CCOCC2)cc1Br	i
Cc1ccc(N2CCN(S(=O)(=O)c3cc(Br)c(C)cc3C)CC2)c(C)c1	i
Oc1ccc(Br)cc1/C=C/c1ccc2ccccc2n1	2%
COC(=O)C1=C(C)NC2=C(C(=O)c3ccccc32)C1c1cccc(OC)c1 (stereo not drawn)	i
C=CCn1c(SCC(=O)N2CCN(c3ccccc3)CC2)nnc1-c1ccc(OC)cc1	i
COc1ccc(NC(=S)NCc2ccc(Cl)cc2Cl)cc1	i
CCOc1ccc(C(=S)N2CCN(c3ccc(F)cc3)CC2)cc1OC	3%
Cc1ccccc1-n1cnc2cc(NS(=O)(=O)c3ccc(Br)cc3)ccc21	i
CCOC(=O)c1c(NC(=O)c2nc(SC)ncc2Cl)sc(C)c1C	i
Cc1cc(S(=O)(=O)Nc2cccc(Cl)c2C)ccc1F	i
Cc1cc(C)c(S(=O)(=O)NCC(=O)N2CCN(C(c3ccccc3)c3ccccc3)CC2)c(C)c1	i
O=c1c2ccccc2ncn1-c1ccc(F)cc1	i
COc1ccc(OC(=O)C(C)N2C(=O)c3ccccc3C2=O)cc1 (stereo not drawn)	4%
CCOc1cc(-c2nc3sc4c(c3c(=O)[nH]2)CCC(C(C)(C)C)C4)ccc1OS(C)(=O)=O (stereo not drawn)	i
Cc1cccc(NC(=O)CSc2nnc(-c3ccc(Br)cc3)o2)c1C	8%
C=CCSc1nnc(CCc2nnc(SCC=C)n2-c2ccccc2)n1-c1ccccc1	27%

(cont.)
Structure	Mtb H37Rv
CN1CCN(C(=O)c2cc(I)ccc2NC(=O)c2cccnc2)CC1	i
CSc1nsc(SCCN2C(=O)c3ccccc3C2=O)n1	i
O=C(COc1ccc(Cl)cc1Br)Nc1nccs1	i
O=C(CCCCC(=O)NC1CCCC1)NC1CCCC1	i
c1ccc(-c2csc3ncnc(NCC4CCCO4)c23)cc1 (stereo not drawn)	i
Cc1cc(C)c(C)c(C(=O)O)c1C	i
CCC(=O)Oc1ccc(/C=C2\C(=O)N(c3ccc(Cl)c(C(=O)O)c3)N=C2C)cc1OC	i
COc1cccc(NC(=O)C2CCCC2)c1	i
NS(=O)(=O)c1ccc(NC(=S)NCc2ccc(F)cc2)cc1	i
COc1cccc2ccc(/C=C/c3ccccc3[N+](=O)[O-])nc12	3%
CCc1cc(=O)oc2c(C)c(OC(C(=O)OC)c3ccccc3)ccc12 (stereo not drawn)	i
CCC(C(=O)Nc1ccc([N+](=O)[O-])cn1)c1ccccc1 (stereo not drawn)	4%
CN(C)c1nc(Oc2ccc(OCCOc3ccccc3)nn2)nc(N(C)C)n1	i
COc1ccc(OC)c(NC(=S)NC(NC(=O)Cc2ccccc2)C(Cl)(Cl)Cl)c1 (stereo not drawn)	1%
COc1ccccc1NCc1ccccc1NS(=O)(=O)c1ccc(C)cc1	2%
O=C(O/N=C(/c1ccncc1)c1ccc([N+](=O)[O-])cc1)c1ccccc1Br	i
CCOc1ccc(N/C(N)=N/c2nc(CSc3ccc(C)cc3)cc(=O)[nH]2)cc1	1%
CC(=O)C12C(=O)Oc3ccc4ccccc4c3C1C2(C)C(=O)c1ccc(C)cc1 (stereo not drawn)	i
O=C(Nc1cc(C(F)(F)F)ccc1Cl)C(=O)N1CCCCC1	4%
COC(=O)c1cc(Cc2ccccc2)sc1NC(=S)Nc1ccccc1SC	i
CC(C)(C)c1ccc(S(=O)(=O)CC(O)CSc2nc3c(cc2C#N)CCCC3)cc1 (stereo not drawn)	i
Cc1ccc(S(=O)(=O)N2CCCCC2)c(C)c1NS(C)(=O)=O	2%
O=C(O)Cc1ccc(CCc2ccccc2)s1	i
CCOc1ccccc1OCCOc1cccc2ccc(C)nc12	i
C=CCn1c(N)cc(=O)nc1SCC(=O)Nc1ccc(C(=O)OCC)cc1	i

7 compounds from above, ordered by length of the SMILES, high to low.
Structure	Mtb H37Rv
CCOc1ccc(N/C(N)=N/c2nc(CSc3ccc(C)cc3)cc(=O)[nH]2)cc1	1%
COc1cccc2ccc(/C=C/c3ccccc3[N+](=O)[O-])nc12	3%
Cc1ccc(S(=O)(=O)N2CCCCC2)c(C)c1NS(C)(=O)=O	2%
CCC(C(=O)Nc1ccc([N+](=O)[O-])cn1)c1ccccc1 (stereo not drawn)	4%
O=C(Nc1cc(C(F)(F)F)ccc1Cl)C(=O)N1CCCCC1	4%
CSc1nsc(SCCN2C(=O)c3ccccc3C2=O)n1	i
COc1cccc(NC(=O)C2CCCC2)c1	i

(further entries)
Structure	Mtb H37Rv
CC(C)(C)C(=O)CSc1nc2ccccc2n1S(=O)(=O)c1ccccc1	i
CCOC(=O)C1CC=C(Cl)CC1C(=O)Nc1nccs1 (stereo not drawn)	i
Cc1ccc(C(=O)NCc2ccccc2)c(Cl)c1	i
Cc1ccc(Cl)cc1NC(=O)c1cc2cc([N+](=O)[O-])ccc2oc1=O	i
COc1cccc(NS(=O)(=O)c2cccc3cccnc23)c1	i
COc1cc(C)c(S(N)(=O)=O)cc1C(C)C	i
COc1ccc(C(=O)Nc2nnc(SCc3ccc(Cl)cc3Cl)s2)cc1	i
COc1ccccc1OCCn1c(C)nc2ccccc21	7%
CC(=O)c1cccc(NC(=S)NCCc2ccc(F)cc2)c1	i
O=c1c(-c2ccco2)[n+]([O-])c2ccccc2n1O	i
N#Cc1cnc2cc(-c3ccc(Cl)cc3)nn2c1N	i
Cc1cccc(NC(=O)C(=O)NCCN2CCOCC2)c1	i
COc1ccc(-c2ccc3c(N)c(C(=O)Nc4nc5ccccc5s4)sc3n2)cc1OC	i
O=C(NCc1ccc(CNC(=O)c2cccc3ccccc23)cc1)c1cccc2ccccc12	i
O=C1CC(C2CCCO2)C(=O)N1c1cccc(Cl)c1 (stereo not drawn)	i
Cc1cc(Br)ccc1OCCCNCCN	i
COc1ccc2cc(-c3ccc([N+](=O)[O-])cc3)c(=O)oc2c1	i
Cc1c(NC(=O)COc2cc(Cl)c(Cl)cc2Cl)cccc1-c1nc2ccccc2o1	1%
O=C(c1ccco1)N1CCN(C(=S)NCC2CCCO2)CC1 (stereo not drawn)	i
O=C(Nc1ccc(N2CCCC2)cc1)c1cccc(-c2cc3ccccc3oc2=O)c1	9%
COc1ccc(N(CC(=O)N2CCCCCC2)S(=O)(=O)c2ccc(F)cc2)cc1	i
COc1ccc(Cl)cc1NC(=O)CSc1nnc(-c2ccccc2C)n1C	5%
CC1CN(CCOCCOc2c(Cl)cccc2Cl)CC(C)O1 (stereo not drawn)	i
O=C(c1ccc(S(=O)(=O)N2CCCC2)cc1)N1CCOCC1	i
O=Cc1ccc(Sc2ccc(C=O)c(O)c2)cc1O	21%
COc1cccc(C2C(C(=O)OCC3CCCO3)=C(C)NC3=C2C(=O)CC(c2cccs2)C3)c1 (stereo not drawn)	i
COCCNC(=O)c1ccc(CNS(=O)(=O)c2ccc(C(C)(C)C)cc2)cc1	i
CCOc1ccccc1NC(=O)CN(C)S(=O)(=O)c1ccc(F)cc1	i
CCN1CCN(Cc2c(O)ccc3c(=O)c(-c4ccc(OC)c(OC)c4)c(C(F)(F)F)oc23)CC1	i
c1nc(NCC2CCCO2)c2c3c(sc2n1)CCCC3 (stereo not drawn)	i
CC(=O)Oc1ccc(C(=O)Nc2cccc(-c3nc4ccccc4c(=O)o3)c2)cc1	4%
Cc1ccc(CC(=O)Nc2ccc(S(=O)(=O)N3CCOCC3)cc2)cc1	0%
CCN1CCN(C(=O)CN(Cc2ccccc2)S(C)(=O)=O)CC1	i
CCn1c(SCC(=O)Nc2cccc(SC)c2)nnc1C(C)Oc1ccccc1 (stereo not drawn)	i
CCCOc1ccc(Cl)cc1CSc1nc(C)[nH]c1[N+](=O)[O-]	i
CC(C)c1ccc(NC(=O)CSc2nnc(CCCOc3ccc(Cl)cc3Cl)o2)cc1	i
COCCNC(=O)c1ccc2c(c1)C(=O)c1ccccc1-2	i
Cc1sc2ncn(Cc3ccc(Br)cc3)c(=O)c2c1C	i
CSc1nc2ccc(NC(=O)c3cccc(C)c3)cc2s1	32%
O=Cc1ccc(OCc2cccc(F)c2)cc1	i
CC(=O)N(c1cccc(C(F)(F)F)c1)C1C=CS(=O)(=O)C1 (stereo not drawn)	0%
O=S1(=O)CC(NCc2ccccc2)C(Nc2ccccc2)C1 (stereo not drawn)	i
O=C(NNC(=S)Nc1ccccc1C(F)(F)F)c1cc(Cl)ccc1O	1%
O=C(NCc1ccccc1)c1ccc(Cl)c(F)c1F	i
Cc1ccc(C(=O)O)cc1S(=O)(=O)NCCCO	i
Cc1cc(NC(=O)CCC(=O)O)ccc1NC(=O)Cc1ccccc1	i
COc1ccc(NC(=O)Cn2cnc3sc(C(=O)Nc4ccccc4OC)c(C)c3c2=O)c(OC)c1	i
COc1ccc(S(=O)(=O)Nc2ccccc2C(F)(F)F)cc1C	i
CC(=O)N(CCCN(C)C)Cc1ccc(C(C)C)cc1	i
CCNS(=O)(=O)c1ccc(NC(=S)NCC2CCCO2)cc1 (stereo not drawn)	i

Three records drawn at random from those above:
Structure	Mtb H37Rv
COc1ccc(S(=O)(=O)Nc2ccccc2C(F)(F)F)cc1C	i
CC(=O)N(CCCN(C)C)Cc1ccc(C(C)C)cc1	i
Cc1sc2ncn(Cc3ccc(Br)cc3)c(=O)c2c1C	i

Continued:
Structure	Mtb H37Rv
Cc1ccc(SCCNC(=S)Nc2cc(C)cc(C)c2)cc1	47%
CN(C)S(=O)(=O)c1ccc2nc(NC(=O)c3ccncc3)sc2c1	i
CCn1c(CNC(=O)c2ccc(OC)c(OC)c2)nnc1SCC(=O)Nc1cc(C)ccc1OC	i
Cc1cc(Br)ccc1OCCN1CCCC1	i
CCCCC(=O)Nc1nc2ccc([N+](=O)[O-])cc2s1	1%
CCSCCNC(=O)c1cc(C(F)(F)F)cc(C(F)(F)F)c1	i
CCOC(=O)c1ccc(NS(=O)(=O)c2ccc(F)cc2C)cc1	i
C=CCOc1ccccc1CNc1ccc2[nH]c(=O)[nH]c2c1	6%

High-throughput results as filed in PubChem.
